# A647 autofl – A647 region autofluorescence; max dye-equivalent concentration, M; Compound fluorescence, A647 channel (570/671 nm), Tris buffer; 59,000 tested, under 10 active; active means above 1 µM dye equivalent; inconclusive means 0.1 to 1 µM; inactive means 0.1 µM or less;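 note: values scaled relative to a standard on each plate; highest value over a series up to 38 µM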
#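 Spectral profiling of library compounds in pH 8.0 Tris: 15 min room-temperature incubation, single ex/em pair (570/671 nm), response normalized to Alexa 647 equivalents.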
# A488 fluor – compound autofluorescence in A488 spectral region | AID 591 | 59,000 tested, 0.1% active | max dye equivalency, M | compound autofluorescence, A488 spectral region, dye equivalency; hits give high values; active = above 10 nM dye equivalent; inconclusive = 1 to 10 nM; inactive = 1 nM or less; about half of its hits are not listed in these tables;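 note: highest value over a series up to 38 µM; compound alone in buffer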
#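 Autofluorescence read at ex 480/em 540 nm after 15 min RT in 100 mM Tris pH 8.0; compound signal normalized to A488 standard series on each plate, reported as dye-equivalent concentration at each test concentration.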
# Resorufin fluor – compounds fluorescent in resorufin spectral region; Compound fluorescence, resorufin region 547/598 nm, buffer; hits give high values; max dye-equivalent concentration, M; 59,000 tested, 0.04% active; active = above 10 nM dye equivalent; inconclusive = 1 to 10 nM; inactive = 1 nM or less; a few of its hits are not listed in these tables; note: highest value over a series up to 38 µM
#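 Read-out: intrinsic compound fluorescence at ex 547/em 598 nm after 15 min at RT in pH 8.0 Tris (100 mM). Values expressed as resorufin-equivalent concentration from per-plate standard series.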
# TSHR ag – agonists of human thyroid stimulating hormone receptor. 73,000 tested, 0.48% active. AID 926. HEK293-CNG-TSHR cells (CNG channel as cAMP sensor), membrane potential dye, cAMP. Potency, µM (top dose mostly 57.1 µM), inactives show top-dose activation, usual class: activators; active = well fitted activation curve of enough size with the parental cells flat; inconclusive = any curve in the parental cells; inactive = parental cells flat and receptor cells flat or falling; note: potency is the fitted concentration of half-maximal effect; % of control where 0% means no effect; weak receptor curves with flat parental cells got no call and are not listed
# Target sequence (P16473 whole entry, looked up): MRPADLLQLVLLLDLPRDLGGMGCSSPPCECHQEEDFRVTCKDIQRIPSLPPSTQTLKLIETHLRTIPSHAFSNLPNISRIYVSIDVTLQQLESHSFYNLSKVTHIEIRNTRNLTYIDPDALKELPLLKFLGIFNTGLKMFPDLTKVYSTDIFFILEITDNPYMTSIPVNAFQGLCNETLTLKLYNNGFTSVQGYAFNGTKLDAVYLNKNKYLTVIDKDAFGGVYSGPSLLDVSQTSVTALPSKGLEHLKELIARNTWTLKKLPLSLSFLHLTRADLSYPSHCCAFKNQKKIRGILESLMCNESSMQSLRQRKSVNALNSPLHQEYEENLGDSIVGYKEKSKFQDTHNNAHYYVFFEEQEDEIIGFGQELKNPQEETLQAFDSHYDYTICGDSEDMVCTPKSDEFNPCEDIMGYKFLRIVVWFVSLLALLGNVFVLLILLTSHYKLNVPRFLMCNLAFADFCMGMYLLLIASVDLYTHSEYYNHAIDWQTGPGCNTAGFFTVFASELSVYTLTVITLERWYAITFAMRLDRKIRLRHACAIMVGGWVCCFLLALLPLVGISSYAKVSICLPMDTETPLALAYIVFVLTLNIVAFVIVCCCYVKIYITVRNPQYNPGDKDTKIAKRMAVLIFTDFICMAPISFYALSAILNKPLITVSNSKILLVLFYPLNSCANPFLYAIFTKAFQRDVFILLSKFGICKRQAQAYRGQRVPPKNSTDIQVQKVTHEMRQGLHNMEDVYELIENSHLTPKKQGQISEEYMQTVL
#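 cAMP rise detected as CNG-channel membrane depolarization by fluorescent dye (emission 590 nm), 30 min after compound, following 60 min dye loading containing 100 uM RO 20-1724 at room temperature. Cells: TSHR/CNG HEK 293, with parental CNG HEK 293 as control.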
# AID923 – qHTS Assay for Allosteric/Competitive Inhibitors of Caspase-1: Spectroscopic Profiling in AFC Spectral Region; compound fluorescence, AFC spectral region (405/520 nm); almost no hit is shown here; Potency, µM (series often up to 57.5 µM), for the others: top-dose fluorescence increase, actives largely listed as activators; 75,000 tested, 1.1% active; AID 923, 2007; active = well fitted activation curve with a large enough effect; inconclusive = small, poorly fitted or top-dose-only effect;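 note: potency is the fitted concentration of half-maximal effect; 0% is about no effect; scaled to a free AFC standard on each plate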
#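 Titrations up to 57 uM read every 20 sec for 3 min (405/520 nm) with 50 nM caspase 1 and 5 uM Ac-WEHD-AFC, pH 7.5 HEPES buffer. Fluorescence-vs-time intercept gave baseline, scaled against on-plate AFC standard.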
# Numbers without * were called inactive; i = inactive; ? = inconclusive; . = not tested or not shown; [ ] = remark or other dose. Not all compounds are listed (hit frequency here may not be typical).
# Each structure is followed by: AID923	Resorufin fluor	A647 autofl	A488 fluor	TSHR ag
O=C(NCCOC(=O)C1COc2ccccc2O1)c1cccnc1 (configuration not stated)
 : 0.4%	i	1.12e-08	i	-2.4%[11.4 µM]
COc1ccccc1N1CCN(C(=O)Nc2cccc(C)c2)CC1
 : -0.3%	i	4.8e-09	i	-2.3%
CCCC(=O)C1=C(O)C(C(=O)OC)C(C)(C)CC1=Nc1ccccc1 (configuration not stated)
 : 6.4%	.	.	.	?
CN1C(=O)C(O)(CC(=O)c2cccc(-n3cccc3)c2)c2ccccc21 (configuration not stated)
 : -0.8%	i	1.4e-09	i	-4.1%
Cc1cc(C(=O)OCC(=O)Nc2nc(-c3ccccc3)cs2)c(C)o1
 : 0.3%	i	4.1e-09	i	?
O=C(CNC1C(=O)Nc2ccccc21)Sc1ccccc1 (configuration not stated)
 : .	i	7.6e-08	i	.
COc1ccccc1OCCCCCc1c(C)n[nH]c1C
 : 0.1%	.	.	.	7.6%
Cc1cc(-c2ccc(Cl)cc2)n2nc(N)nc2n1
 : -0.8%	i	3.53e-08	i	-0.9%
CC(C)(C)n1nnnc1C(c1cccs1)N(Cc1ccccc1)Cc1cccnc1 (configuration not stated)
 : 1.6%	i	2.84e-08	i	?
CCCCCCN(C(=O)CCCCCN1C(=O)NC(C2CCCCC2)C(C(=O)OCc2ccccc2)=C1C)C(C(=O)NCCCC)c1ccc(OCC(=O)OC)c(C(=O)OC)c1 (configuration not stated)
 : -1.3%	.	.	.	?
CCOc1ccccc1N1CCN(Cc2ccc(OC)c(OC)c2OC)CC1
 : 1.2%	i	3.41e-08	i	?
O=C(Nc1c(-c2ccccc2)nc2ccccn12)c1ccco1
 : -0.5%	i	2.34e-08	i	6.9%
O=C(CSc1ncnc2nc[nH]c12)c1ccccc1
 : -1.3%[11.5 µM]	i	2.78e-08	i	2.5%[11.4 µM]
COc1ccc(C(=O)N2CC=C(c3ccccc3)CC2)cc1S(=O)(=O)N1CCOCC1
 : -0.4%	i	4.28e-08	i	0.1%
COc1ccccc1NC(=O)N1CCN(c2ncccn2)CC1
 : -1.3%	i	1e-09	i	-0.1%
Cc1sc2ncn(CC(=O)OC(C)C(=O)NC(C)(C)C)c(=O)c2c1C (configuration not stated)
 : 0.1%	i	1.3e-08	i	9.6%
CS(=O)(=O)Nc1cccc(-c2cncnc2NCc2ccccc2)c1
 : 1.6%	i	1.2e-09	i	10.8%
Cc1ccsc1-c1nc(CSCC(=O)N2CCN(c3ccccc3)CC2)c(C)o1
 : 2.3%	.	.	.	?
Cc1cccc(OCCC(=O)Nc2c(C)n(C)n(-c3ccccc3)c2=O)c1
 : -0.9%	i	3.9e-09	i	2.6%
Cc1ccc(-n2c(SCC(=O)Nc3ccc4c(c3)OCO4)nnc2-c2cccs2)cc1
 : -0.2%	i	1e-09	i	?
COc1ccc(NC(=O)c2ccco2)cc1NC(=O)c1cccc(OC(C)C)c1
 : 0.3%	i	2.4e-09	i	?
O=C(NC1CCCCCCC1)c1ccc(CNc2c(N3CCOCC3)c(=O)c2=O)cc1
 : 1.8%	.	.	.	9.9%
COc1ccc(S(=O)(=O)N2CCC(C(=O)N3CCCCC3)CC2)cc1OC
 : -0.9%	i	1e-09	i	?
COc1cccc(-c2nc(CSCC(=O)NCC3CCCO3)c(C)o2)c1 (configuration not stated)
 : -0.8%	i	9.8e-09	i	11.7%[11.4 µM]
CCCCCOC(=O)C1[C@H]2C(=O)N(c3ccccc3CC)C[C@]23C=C[C@H]1O3 (some centres not stated)
 : -1.0%	i	1e-09	i	3.4%
Cc1cc(SCC(=O)c2ccccc2)nc2ccccc12
 : 3.3%[11.5 µM]	i	1.23e-08	i	4.0%[11.4 µM]
O=S(=O)(N1CCOCC1)N1CCN(c2ccccc2F)CC1
 : -0.9%	i	4.68e-08	i	2.2%
CSCC[C@H](NC(=O)OC(C)(C)C)c1nnc(SCC(=O)Nc2ccc(C)cc2C)o1
 : 1.0%	i	9.3e-09	i	21.1%
O=C(c1cc(-c2ccc(Cl)cc2)on1)N1CCOCC1
 : 0.3%	i	3.57e-08	i	-6.0%
NC(=O)C[C@@H]1N[C@]2(C(=O)Nc3ccccc32)[C@@H]2C(=O)N(c3cc(C(F)(F)F)ccc3Cl)C(=O)[C@H]12
 : 10.4%	i	3.06e-08	i	3.1%
CCOC(=O)CNC(=O)CSc1nnc(-c2ccccc2OC)n1CC
 : -1.6%	i	6.7e-09	i	-5.2%
O=C(CN1C(=O)c2ccccc2S1(=O)=O)NCc1cccnc1
 : -1.4%	i	2.78e-08	i	.
COc1nc(N(C)C)nc(N(OC)S(=O)(=O)c2ccccc2Cl)n1
 : 0.5%	i	3.18e-08	i	14.6%
CC(C)C(c1nnnn1C1CCCC1)N1c2ccccc2CC1C (configuration not stated)
 : 0.5%	i	1e-09	i	28.6%
CCOC(=O)NCc1cc(-c2nn(C)c(=O)c3ccccc23)ccc1C
 : 1.9%	i	1e-09	i	29.0%
Cc1nn(-c2cccc(Cl)c2)c2c1C(c1ccncc1)C(C#N)=C(N)O2 (configuration not stated)
 : .	i	7.98e-08	i	.
CCN(CC)CCCn1c(C)cc2c(c1=O)C(c1cccc(Cl)c1)C(C#N)=C(N)O2 (configuration not stated)
 : .	i	1.55e-08	i	.
CCCC(=O)Nc1ccccc1NC(=O)CN(C)S(=O)(=O)c1ccc(C)cc1
 : -0.3%	i	1e-09	i	3.1%
CCCN(CCC)C(=O)CC(c1ccc(F)cc1)c1ccco1 (configuration not stated)
 : .	i	2.47e-08	i	.
O=C(NCCCn1ccnc1)C1CC(c2cccc(Br)c2)=NO1 (configuration not stated)
 : -0.5%	i	2.42e-08	i	2.9%
N#CC(C(=O)Nc1ccccc1)=C1CCCCC1
 : -0.3%	.	.	.	-0.3%
COc1ccc(N(C(=O)c2cccnc2)S(=O)(=O)c2ccc3c(c2)n(C)c(=O)n3C)cc1
 : -0.4%	i	1e-09	i	.
Cc1cc(C)c2[nH]c(=O)c(CN(CC3CCCO3)S(=O)(=O)c3ccc4c(c3)OCCO4)cc2c1 (configuration not stated)
 : 2.9%	i	6.81e-08	i	11.6%
CCCC1=C(C(=O)OCC)C(c2ccc(F)cc2)n2ncnc2N1 (configuration not stated)
 : -0.3%	i	1.96e-08	i	9.8%
CC(C)[C@@H](C)/C=C\[C@@H](C)[C@@H]1CC[C@H]2C3=CC=C4C[C@@H](O)CC[C@]4(C)[C@H]3CC[C@]21C
 : -0.5%[11.5 µM]	i	1e-09	i	0.2%[11.4 µM]
c1ccc(Nc2nc(-c3cccs3)cs2)nc1
 : 0.0%	i	1.7e-09	i	-12.0%
Clc1ccc(Cl)c(Nc2ccnc(SCc3ccccc3)n2)c1
 : -3.0%[11.5 µM]	i	2.88e-08	i	0.6%[11.4 µM]
O=C(Nc1ccc(F)c(F)c1)c1ccc(F)c(S(=O)(=O)N2CCOCC2)c1
 : -2.9%	i	3.2e-09	i	?
CCOC(=O)Cc1csc(NC(=O)c2cccnc2)n1
 : -1.8%	i	3.82e-08	i	-1.2%
NC(=O)c1ccccc1-c1nc(-c2ccccc2)no1
 : -0.2%	i	1e-09	i	-2.6%
O=C1CN(C(=O)COC(=O)C2CC(=O)N(Cc3ccco3)C2)c2ccccc2N1 (configuration not stated)
 : 1.2%	i	3.5e-08	i	-0.5%
O=C(c1cc(Br)ccc1O)c1cc(Br)ccc1O
 : 19.5%[11.5 µM]	i	2.76e-08	i	-3.5%[11.4 µM]
CO[C@@H]1COC(=O)C/C=C\[C@@H](C)[C@H](OC)COC(=O)[C@H](COCc2ccccc2)NC(=O)C/C=C\[C@H]1C
 : -0.2%[11.5 µM]	.	.	.	1.6%[11.4 µM]
CCOC(=O)C1=C(c2ccccc2)Nc2ncnn2C1c1ccccn1 (configuration not stated)
 : -0.3%	i	6.8e-09	i	4.1%
COC(=O)[C@@]1(Cc2ccc(OC)cc2)[C@H]2c3cc(C(=O)N4CCCC4)n(Cc4cc(C)n(C)n4)c3C[C@H]2CN1C(=O)c1ccccc1
 : 4.4%	.	.	.	?
CCn1cc(Br)c(C(=O)Nc2ccc(C(=O)OC(C)C)cc2)n1
 : -1.6%	i	1e-09	i	-2.6%
O=C(c1ccc(C#CC2(O)CCCCC2)cc1)N1CCOCC1
 : -0.3%	i	1.8e-09	i	3.0%
COc1ccc(CCN(Cc2nc(-c3ccccc3)no2)Cc2nc(-c3ccccc3)no2)cc1OC
 : -0.1%	i	5e-09	i	28.6%
COCc1cc(C)nc2sc(C(=O)N3CCN(c4ccccc4)CC3)c(N)c12
 : 3.9%	.	.	.	0.8%
Cn1c(=O)oc2cc(S(=O)(=O)N3CCN(C(=O)c4ccco4)CC3)ccc21
 : 2.8%	i	2.4e-09	i	-5.2%

# Going on with the list.
# Each structure is followed by: AID923	Resorufin fluor	A647 autofl	A488 fluor	TSHR ag
Cc1cccn2c(=O)c3cc(C(=O)NCc4ccccn4)n(C)c3nc12
 : -2.5%	i	5.4e-09	i	17.0%
Nc1nn(S(=O)(=O)c2cccc3nsnc23)cc1-c1ccc(Br)cc1
 : -2.5%	i	7.93e-08	i	-15.5%
Cn1c(CCCNC(=O)c2ccccc2)nc2ccccc21
 : -0.5%	i	8.8e-09	i	0.9%[11.4 µM]
COC(=O)C/C=C\[C@@H](C)[C@@H](/C=N\OC[C@@H](O)[C@H]1O[C@H]2OC(C)(C)O[C@H]2[C@@H]1O)NS(=O)(=O)c1ccc(C)cc1
 : -1.9%[11.5 µM]	.	.	.	-9.1%[11.4 µM]
CCOC(=O)CN1C(=O)COc2ccc(Cl)cc21
 : -1.0%	i	9.9e-09	i	1.4%
COc1cccc(-c2csc(N3CCN(S(=O)(=O)c4ccc(F)cc4)CC3)n2)c1
 : 3.9%	i	1e-09	i	-6.0%
Cc1cnn(C(=O)c2oc3ccccc3c2C)c1
 : -1.7%	i	1e-09	i	27.9%
O=C(NCc1ccc2c(c1)OCO2)C1CCCN(S(=O)(=O)c2cccs2)C1 (configuration not stated)
 : -0.1%	.	.	.	-1.0%
COc1ccc(C(=O)Cn2c(N3CCOCC3)nc3c2c(=O)n(C)c(=O)n3C)cc1
 : 1.2%	i	4e-09	i	0.8%
COC(=O)COc1ccc(S(=O)(=O)NCc2ccncc2)cc1
 : -1.4%	i	1e-09	i	10.1%
c1ccc(-c2nn3c(-c4ccccc4)nnc3s2)cc1
 : 1.4%	i	1.78e-08	i	7.3%
O=C(Nc1cnc2ccccc2c1)c1cccc(-n2cnnn2)c1
 : -0.8%	i	5.1e-08	i	-4.1%
N#Cc1cccc(NC(=O)N2CC[C@@]3(CCCN(C(=O)c4ccco4)C3)C2)c1
 : 0.6%	i	3.03e-08	i	12.8%
CCOC(=O)c1cccc(NC(=O)CSc2nc3ccccc3c(=O)n2CC)c1
 : -1.0%	i	1e-09	i	?
O=C1OC2(c3ccc(O)cc3Oc3cc(O)ccc32)c2c1c(-c1ccccc1)c(-c1ccccc1)c(-c1ccccc1)c2-c1ccccc1
 : -5.9%[11.5 µM]	?	1e-09	2.29e-08M*	9.4%[11.4 µM]
O=C(NC1CCCCCC1)C1c2ccccc2C(=O)N1CCCN1CCOCC1 (configuration not stated)
 : -0.3%	i	4.74e-08	i	5.2%
